Bioassay records deposited in PubChem BioAssay by National Center for Advancing Translational Sciences (NCATS).
Bst PK mod: alters activity of Bacillus stearothermophilus pyruvate kinase | partly purified Bacillus stearothermophilus pyruvate kinase, luminescence ATP production; ribose 5-phosphate activator present at AC10 | Potency, µM | AID 361 | hit rate 1.2% among 51,000; in the data active means potency below about 11 µM; inconclusive means mostly about 12 µM to 25 µM; inactive means weaker than that;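 the screen sought inhibitors and activators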;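 further: potency means the concentration at half of the fitted maximal effect; scaled between full activation by ribose 5 phosphate and full inhibition by luteolin; about four in five hits inhibit and the cells do not say which; series up to 57 µM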
YjeE inh: displaces an ADP probe from E. coli YjeE (TsaE); P0AF67; purified YjeE, fluorescence polarisation of a bound ADP probe; Potency, µM; hit rate 0.05% among 71,000; AID 605; active = well fitted falling curve; inconclusive = weaker or top-dose-only fall, or a rising curve; inactive = flat or poorly fitted curve;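 further: top concentration of the series not given in the record; excess ADP was the control for the full effect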
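Fluorescence polarization of a BODIPY Texas Red–ADP probe (2 uM) bound to purified YjeE (10 uM) was read after 15 min room-temperature incubation with compounds. Loss of polarization marks inhibitors; ADP serves as titrated control.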
The depositor's hits bear a star; i = inactive; ? = inconclusive; . = not tested or not shown.

entry | YjeE inh | Bst PK mod | SMILES
1 | i | >57 | COc1cccc(Nc2ncccc2C(=O)O)c1
2 | . | >26 | Cn1cc(C(=O)NCN2CCCCC2)c2ccccc21
3 | i | . | CCC(=O)Nc1ccccc1C(=O)N1CCN(Cc2ccccc2)CC1
4 | i | >57 | Cn1c(=O)c2c(nc(CN3CCN(c4ccccc4F)CC3)n2CCCc2ccccc2)n(C)c1=O
5 | i | >57 | COC(=O)c1cc2sc(Cl)cc2n1CC(=O)Nc1ccc(OC)c(OC)c1OC
6 | i | . | CC1CC(C)(C)NCCNC(C)CC(C)(C)NCCN1 (centres undefined)
7 | i | . | CCOC(=O)c1ccc(N2C(=O)CC(C3CCCO3)C2=O)cc1 (centres undefined)
8 | i | >57 | Nc1c(S(=O)(=O)c2cccc(Cl)c2)c2nc3ccccc3nc2n1CCN1CCOCC1
9 | i | >57 | Cc1ccc(N(CC(=O)NCC2CCCO2)S(C)(=O)=O)cc1Cl (centres undefined)
10 | i | . | C[C@@H](CN1CCC(Cc2ccccc2)CC1)[C@@H](O)c1ccc(O)cc1
11 | i | >57 | COC(=O)C1=C(N)Oc2cc(C)n(CC3CCCO3)c(=O)c2C1c1ccccc1 (centres undefined)
12 | i | . | COc1ccc(NC(=O)Nc2ccc(N(C)C)cc2)cc1
13 | i | >57 | O=C(O)C1CCC(=O)N1C1CCCC1 (centres undefined)
14 | i | >57 | Cc1nnc(NC(=O)CCC(=O)N2CCC(C)CC2)s1
15 | . | >26 | CSc1nc(N)c(C#N)c(-c2ccccc2Cl)c1C#N
16 | i | >57 | Cn1c(CCc2ccccc2)nnc1SCC(=O)N1CCCC1
17 | i | . | CCOC(=O)Cc1c(C)nc2c(-c3ccc(Cl)cc3)c[nH]n2c1=O
18 | i | >57 | CCN(CC)CCN1C(=O)C(=O)/C(=C(/O)c2ccncc2)C1c1ccccc1 (centres undefined)
19 | i | . | Cc1ccc2oc3c(c(=O)c2c1)C(c1cccs1)N(CCCN(C)C)C3=O (centres undefined)
20 | i | . | O=C(Nc1sc2c(c1C(=O)NCC1CCCO1)CCCC2)c1cccs1 (centres undefined)
21 | i | >57 | COCCOC(=O)C1=C(C)Nc2ncnn2C1c1ccc(F)cc1 (centres undefined)
22 | i | >57 | NC(=O)CSc1nnc(-c2ccc(S(=O)(=O)N3CCOCC3)cc2)n1CC1CCCO1 (centres undefined)
23 | i | >57 | CCN=C1SC(CC(=O)Nc2sc3c(c2C#N)CCCC3)C(=O)N1CC (centres undefined)
24 | i | >57 | Cc1onc(-c2ccccc2Cl)c1C(=O)NCCN1CCOCC1
25 | i | >57 | CCOC(=O)CNC(=O)CSc1nnc(Cn2c(=O)sc3ccccc32)n1-c1ccccc1C
26 | i | >57 | CCc1nnc(NC(=O)C2CCCN(c3nc(C)cc(C)n3)C2)s1 (centres undefined)
27 | . | >26 | CCOC(=O)C1=C(C)N=C2SC(C)C(=O)N2C1c1ccc(C(=O)OC)cc1 (centres undefined)
28 | i | >57 | CCOC(=O)c1cccc(NC(=O)CSc2nnc(-c3ccoc3C)n2CCOC)c1
29 | i | >57 | COc1cccc(N2CC(C(=O)Nc3ccc(C(=O)OC(C)C)cc3)CC2=O)c1 (centres undefined)
30 | i | . | COc1ccc(NC(=O)N(CCC(C)C)C(C)c2ccccn2)c(OC)c1 (centres undefined)

Record cards, from the list above.
CCOC(=O)c1ccc(N2C(=O)CC(C3CCCO3)C2=O)cc1 (centres undefined) in the list: YjeE inh = i; Bst PK mod = .
CCN=C1SC(CC(=O)Nc2sc3c(c2C#N)CCCC3)C(=O)N1CC (centres undefined) in the list: YjeE inh = i; Bst PK mod = >57
Cn1cc(C(=O)NCN2CCCCC2)c2ccccc21 in the list: YjeE inh = .; Bst PK mod = >26

(further entries)
entry | YjeE inh | Bst PK mod | SMILES
31 | i | >57 | CN1CC(=O)NC1=NC(=O)c1cc(F)c(F)cc1Cl
32 | i | >57 | Cc1ccc(N(C(C)C(=O)Nc2ccc(S(=O)(=O)N3CCOCC3)cc2)S(C)(=O)=O)cc1 (centres undefined)
33 | i | >57 | CCOC(=O)NC(NC(=O)OCC)C(=O)c1ccc(F)cc1
34 | i | . | Cc1cc(C)c2[nH]c(=O)c(CN(Cc3ccco3)C(=O)C3CCCO3)cc2c1 (centres undefined)
35 | i | . | Nc1nc(CSc2ccccn2)nc(Nc2ccccc2)n1
36 | i | . | CCSc1sccc1C1C(C#N)=C(N)N(c2cccnc2)C2=C1C(=O)CC(C)(C)C2 (centres undefined)
37 | i | >57 | CC1CCN(S(=O)(=O)c2ccc(NC(=O)CSc3nnnn3C)cc2)CC1
38 | i | >57 | CS(=O)(=O)N1CCN(c2ncccn2)CC1
39 | i | . | CC(=O)N(CC(=O)Nc1nn(-c2ccccc2)nc1C(N)=O)Cc1ccccc1
40 | i | . | Nc1ncnc2c1nc(Br)n2[C@H]1O[C@H]2COP(=O)(O)O[C@H]2[C@@H]1O
41 | i | >57 | CC1(O)c2ccccc2C(=O)N1Cc1ccccc1 (centres undefined)
42 | i | . | CCN(CC)C(=O)CSc1nc(O)cc(=O)n1CC
43 | i | . | CC(=O)Nc1c(I)c(C(=O)N[C@H]2[C@@H](O)[C@H](O)[C@H](CO)O[C@@H]2O)c(I)c(N(C)C(C)=O)c1I
44 | i | . | O=C(c1csnn1)N1CCC2(CC1)CN(Cc1cc(C(F)(F)F)cc(C(F)(F)F)c1)C2
45 | i | >57 | O=C(c1ccco1)N1CCN(C(=O)c2ccc(COc3ccc(F)cc3)o2)CC1
46 | i | >57 | c1coc(Cn2c(SCc3nc4ccccc4[nH]3)nnc2-c2cnccn2)c1
47 | i | . | COc1ccc(-c2nnc3sc(-c4ccccn4)nn23)cc1
48 | i | >57 | COc1ccc(Cl)cc1NC(=O)c1ocnc1C
49 | i | . | O=C(O)CC(CNS(=O)(=O)c1ccccc1)c1ccccc1 (centres undefined)
50 | i | . | O=C(c1cc(C2CC2)on1)N1CCOCC1
51 | i | >57 | O=c1c2c3c(sc2n(CCN2CCCC2)c(=O)n1Cc1ccco1)CCCCC3
52 | i | >57 | CN(C)CC(O)COc1cc2ccccc2cc1C(=O)N1CCCCC1 (centres undefined)
53 | i | >57 | O=C(CSc1nncs1)N1c2ccccc2Sc2ccccc21
54 | i | >57 | CCn1cc(C(C)(C)C)c(C#N)c1NC(C)=O
55 | i | . | CCOc1cc(CNc2ncnc3nc[nH]c23)ccc1OC
56 | i | >57 | C=CCn1c(N)c(C(=O)Nc2ccccc2OC)sc1=S
57 | i | . | O=C(Oc1ccccc1)N1CCC2(CC1)CCN(c1ccccn1)CC2
58 | i | . | CCN(Cc1ccccc1)C(=O)CC1Oc2ccccc2NC1=O (centres undefined)
59 | i | . | COc1cccc(NC(=O)CSc2nnc(-c3cc(C)n(-c4ccccc4)c3C)o2)c1
60 | i | >57 | O=S(=O)(CCc1ccccc1)/N=C/c1cccs1

Given screen by screen: part of the list above.
34	Cc1cc(C)c2[nH]c(=O)c(CN(Cc3ccco3)C(=O)C3CCCO3)cc2c1 (centres undefined)
60	O=S(=O)(CCc1ccccc1)/N=C/c1cccs1
33	CCOC(=O)NC(NC(=O)OCC)C(=O)c1ccc(F)cc1
32	Cc1ccc(N(C(C)C(=O)Nc2ccc(S(=O)(=O)N3CCOCC3)cc2)S(C)(=O)=O)cc1 (centres undefined)

entry no.	34	60	33	32
YjeE inh	i	i	i	i
Bst PK mod	.	>57	>57	>57

Following part.
entry | YjeE inh | Bst PK mod | SMILES
61 | i | ? | Cc1ccc(S(=O)(=O)N2CCCC2C(=O)N(C)Cc2cccs2)cc1 (centres undefined)
62 | i | >57 | O=C1c2cccc3cccc(c23)C(=O)N1c1cccnc1
63 | i | . | CCn1cc(SCC(=O)NCC2CCCO2)c2ccccc21 (centres undefined)
64 | i | >57 | COc1ccc(C(=O)c2ccc(N3CCN(C4CC(=O)NC4=O)CC3)cc2)cc1F (centres undefined)
65 | i | >57 | Cc1ccc2nc(-c3ccccn3)cc(C(=O)NC3CCN(C)CC3)c2c1
66 | i | >57 | CCOC(=O)Cn1cnc2c(nnn2-c2ccc(C)cc2)c1=O
67 | i | >57 | CCOC(=O)c1cc(-c2cccs2)nn1CCC#N
68 | i | i | Nc1ncc(-c2cc3ccccc3oc2=O)s1
69 | i | >57 | COc1ccc(-c2nnc(CSc3ncnc4sc5c(c34)CCC5)o2)cc1OC
70 | i | >57 | Cc1nc(SCc2ccccc2)c(C(F)(F)F)c(=O)[nH]1
71 | i | >57 | CCN(CC)CCCC(C)NC1=NCCCCC1 (centres undefined)
72 | i | >57 | Cc1ccc(C(=O)OCc2cn3ccccc3n2)cc1
73 | . | >26 | CC(C)CC(=O)Nc1ccccc1N1CCCC1
74 | i | >57 | CC(=O)Nc1ccc(S(=O)(=O)Nc2nnc(C3CCCCC3)s2)cc1
75 | i | . | O=C(c1cnccn1)N1CCC2(CCCN(c3ccccn3)C2)CC1
76 | i | >57 | CCSCCNC(=O)c1cc(-n2cnnc2)ccc1Cl
77 | i | >57 | CCOCCCN1C(=O)CN(C2CCCCC2)C(=O)C1c1ccc(OC)c(OC)c1 (centres undefined)
78 | i | . | CCOc1ccc(NC(=O)C(C)Sc2nnc(C)n2C)cc1 (centres undefined)
79 | i | . | C(=C\CSc1nnnn1-c1ccccc1)/CSc1nnnn1-c1ccccc1
80 | i | >57 | Cc1cc(C)n(-c2ccc(C(=O)NCc3ccc4c(c3)OCO4)cc2)n1
81 | i | i | CC(=O)Nc1cccc(Oc2ccc(-c3noc(C)n3)cc2)c1
82 | i | >57 | Cc1ccc(Cn2c(SCC(N)=O)nc3c2c(=O)n(C)c(=O)n3C)cc1
83 | . | >26 | NC(=O)C(c1ccccc1)C1CCCC1 (centres undefined)
84 | i | >57 | O=c1c2ccccc2nc(SCc2nc3ccccc3s2)n1Cc1ccco1
85 | i | >57 | CCN1C(=O)N(C)C2(c3ccccc3)N(C)C(=O)N(C)C12c1ccccc1 (centres undefined)
86 | i | >57 | COC(=O)c1c(-c2ccc(OC)c(OC)c2)csc1N
87 | i | >57 | Cc1ccc(CCNC(=O)CN2CCN(Cc3ccccc3F)C2=O)cc1
88 | i | >57 | Cn1ccnc1Sc1nnnn1-c1ccccc1
89 | i | . | COc1ccccc1-c1nc2n(n1)C(c1ccccc1Cl)C(C(N)=O)=C(C)N2 (centres undefined)
90 | i | >57 | CCCOc1c(OC)cccc1C1CC(=O)Nc2cc(OC)c(OC)c(OC)c21 (centres undefined)
91 | i | >57 | CC1(C)CC(=O)C2=C(C1)N(c1ccccc1)C(N)=C(C#N)C2c1cccnc1 (centres undefined)
92 | i | . | O=C1CCCCCC1C1(O)C(=O)Nc2ccccc21 (centres undefined)
93 | i | >57 | CCCCOC(=O)C1=C(C)Nc2ncnn2C1c1ccc(OC)c(OC)c1OC (centres undefined)
94 | i | . | COc1cc2[nH]c3c(N4CCN(c5ccccn5)CC4)ncnc3c2cc1OC
95 | i | . | CC(C)N(C(=O)COc1ccc(Br)cc1Cl)C(C)C
96 | i | . | COc1ccc(-c2nnc(SC(=O)N3c4ccccc4Sc4ccccc43)o2)cc1
97 | i | >57 | O=C1c2ccccc2C(=O)N1Cc1nc(-c2ccncc2)no1
98 | i | >57 | O=C(NCc1cccnc1)C1CCN(S(=O)(=O)N2CCC3(CC2)OCCO3)CC1
99 | i | . | CN(C)c1ncc2nc(-c3ccc(F)cc3)c(=O)n(CCC#N)c2n1
100 | i | >57 | CSc1nsc(SC)c1NC(=O)N1CCCC1
101 | i | >57 | COc1ccc(C2C(C(=O)N3CC(C)CC(C)C3)c3ccccc3C(=O)N2C)cc1 (centres undefined)
102 | i | . | CC1=C(/C=C/C(C)=C/C=C/C(C)=C/CO)C(C)(C)CCC1
103 | i | . | OC[C@@H]1CCC[C@H](n2cnc3c(=S)nc[nH]c32)O1
104 | i | >57 | CCC1CCCCN1CCCNC(=O)C1CCN(S(=O)(=O)N2CCCCC2)CC1 (centres undefined)
105 | i | >57 | CCSc1nnc(NC(=O)CSc2nccn2-c2cccc(C)c2)s1
106 | i | 11* | NC(=O)c1cnn2c(C(F)(F)F)cc(-c3ccccc3)nc12
107 | i | . | CCOC(=O)C1CCCN(C(=O)Cn2ncc3c(=O)oc4ccc(C)cc4c32)C1 (centres undefined)
108 | i | >57 | C=C(C)n1c(=O)[nH]c2ccccc21
109 | i | . | C/C=C1/C(=O)C[C@H]2[C@@H]3CCC4=CC(=O)CC[C@]4(C)[C@H]3CC[C@]12C
110 | i | >57 | CCCCCC(=O)N(O)C1CC(=O)N(c2ccccc2)C1=O (centres undefined)
111 | i | >57 | NCc1ccc(-c2nc3ccccc3o2)cc1
112 | i | >57 | Cc1cc(C)cc(NC(=O)CSc2nnc(-c3ccc(S(=O)(=O)N4CCCC4)cc3)o2)c1
113 | i | . | CCOC(=O)N1CCC(N2Cc3cccc(C(=O)O)c3C2=O)CC1
114 | i | >57 | Cc1cc(Cl)c(S(=O)(=O)N2CCCCCC2)cc1OCC(N)=O
115 | i | >57 | CC(C)N1C(=O)CCC1C(=O)NCCc1ccccc1 (centres undefined)
116 | i | >57 | Cn1c(=O)n(C)c2cc(C(N)=O)ccc21
117 | i | >57 | Cc1ccc(CNn2cnnc2SCC(=O)NC(C)(C)C)cc1
118 | i | . | COc1ccc(C(=O)N2CCC[C@@]3(CCN(C(=O)Nc4ccccc4)C3)C2)cc1
119 | i | . | CNCCC=C1c2ccccc2C=Cc2ccccc21
120 | i | i | CSc1nc2ccc(NC(=O)C3CCCO3)cc2s1 (centres undefined)
121 | i | >57 | COc1cc(NC(=O)CCN2CCN(c3ccccc3F)CC2)cc(OC)c1
122 | i | . | O=C(O)CCc1ccc(-c2ccc(Br)cc2)o1
123 | i | . | O=c1c(-c2ccccc2)nc2cnc(N3CCOCC3)nc2n1C1CC1

Screen by screen, from the results shown.
YjeE inh for nos. 28 to 34, in order: i, i, i, i, i, i, i

Some of the compounds tested; the hit share may differ from the screen's.
